# Bioassay records (PubChem)
# VCAM-1 imaging: suppression of endothelial VCAM-1 upregulation – imaging, high-content imaging, pooled HUVEC, TNFa stimulus (AID 456). HUVEC TNFa-induced VCAM-1 surface expression, immunofluorescence imaging; numbers were filed only for top-ranked candidate wells. inhibition, % at 5 µM, or IC50 in µM where a hit was titrated. hit rate 0.2% among 10,000;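 active means top tenth filtered wells with inhibition above zero that passed visual or statistical confirmation; inactive means the rest, including hits rejected on review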;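 further: 0% = stimulated vehicle wells and 100% = unstimulated cells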
# VCAM-1 up imaging: boosters of cytokine-driven VCAM-1 levels – imaging, high-content imaging, pooled HUVEC, TNFa stimulus (AID 457) | Pooled HUVEC, TNFa-induced VCAM-1 immunofluorescence imaging; hits of this screen are not shown here | calls only | hit rate 0.2% among 10,000;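 active means a top-ranked rise in VCAM-1 staining upheld on image or statistical review; inactive means the rest, including candidates rejected on review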;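 further: compounds tested at 5 µM in the well; cells exposed to compound for 24 hours before fixing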
# FPR ligand: binds the human formylpeptide receptor FPR; P21462; FPR-expressing cells, fluorescent ligand binding, flow cytometry; inhibition, %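 (tested at 6.7 µM)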; hit rate 0.74% among 24,000; AID 440;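 further: 0% = buffer wells and 100% = receptor blocker peptide wells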
# Target sequence (P21462 whole entry, looked up): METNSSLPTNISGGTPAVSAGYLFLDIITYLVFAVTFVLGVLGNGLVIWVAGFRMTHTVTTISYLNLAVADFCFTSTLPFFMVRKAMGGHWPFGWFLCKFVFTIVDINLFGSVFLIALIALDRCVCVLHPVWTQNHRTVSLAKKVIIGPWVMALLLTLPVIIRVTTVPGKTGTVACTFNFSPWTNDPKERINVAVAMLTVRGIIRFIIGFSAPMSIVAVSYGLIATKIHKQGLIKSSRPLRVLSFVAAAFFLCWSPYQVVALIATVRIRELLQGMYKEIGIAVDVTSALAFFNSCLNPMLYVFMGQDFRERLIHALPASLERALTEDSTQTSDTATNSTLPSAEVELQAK
# VCAM-1 down: suppression of endothelial VCAM-1 upregulation – cell-based, plate reader, pooled HUVEC, TNFa stimulus (AID 454). HUVEC TNFa-induced VCAM-1 surface immunofluorescence, plate reader; numbers were filed only for top-ranked candidate wells. inhibition, % at 5 µM. hit rate 0.2% among 10,000;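 active means compound among top-ranked inhibitors of TNF-induced VCAM-1 adhesion protein staining, with the hit upheld by image or statistical review; inactive means the rest, including hits rejected on review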;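 further: 0% = TNFa with vehicle and 100% = cells without TNFa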
# FPRL1 binder: binds the human formylpeptide receptor-like-1 FPRL1 | P25090 | FPRL1-expressing cells, fluorescent ligand binding inhibition, flow cytometry | inhibition, %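 (tested at 6.7 µM)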 | hit rate 0.3% among 24,000 | AID 441;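 further: 0% = buffer alone and 100% = receptor blocker peptide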
# Target sequence (P25090 whole entry, looked up): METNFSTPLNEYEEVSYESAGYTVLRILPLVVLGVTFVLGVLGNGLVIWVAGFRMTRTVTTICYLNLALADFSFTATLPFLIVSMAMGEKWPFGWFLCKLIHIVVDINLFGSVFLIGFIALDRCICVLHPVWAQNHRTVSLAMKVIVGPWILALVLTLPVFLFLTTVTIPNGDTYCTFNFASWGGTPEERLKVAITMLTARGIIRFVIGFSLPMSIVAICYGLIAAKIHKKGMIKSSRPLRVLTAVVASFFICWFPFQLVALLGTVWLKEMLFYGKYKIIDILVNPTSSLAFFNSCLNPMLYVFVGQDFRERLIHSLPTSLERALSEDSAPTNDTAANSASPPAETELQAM
# The depositor's hits bear a star; i = inactive; / = no result given.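 How the source made its calls, unless noted: active means mean above 30%; inconclusive means self-fluorescent; inactive means the rest.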 An excerpt; the hit share may differ from the screen's.
# Order of values – VCAM-1 imaging, VCAM-1 up imaging, FPR ligand, VCAM-1 down, FPRL1 binder
O=C(O)C1CCN(C(=O)c2ccccc2C(=O)N2CCC(C(=O)O)CC2)CC1
    /, /, 7, /, 6
CC(=O)C1=C(O)C(=O)N(CCN2CCOCC2)C1c1ccc(N(C)C)cc1 (stereo not drawn)
    /, /, 0, /, -4
Cc1ccc(C(=O)CSc2n[nH]c(-c3ccco3)n2)cc1C
    i, i, 3, i, -3
COc1ccc(/C=N/n2c(SC)nnc2-c2ccccc2)cc1C
    i, i, -14, i, -2
O=C(c1ccc2nc(N3CCOCC3)sc2c1)N1CCCC1
    i, i, -6, i, -5
O=C(CN1C(=O)C2(OCCCO2)c2ccccc21)NCCc1ccccc1
    /, /, 8, /, 4
COc1cccc(NC(=O)N2CCC(N3CCCCC3)CC2)c1
    i, i, -2, i, -4
O=C(NCc1ccc2c(c1)OCO2)c1cc(S(=O)(=O)N2CCCCC2)ccc1F
    /, /, 2, /, -3
CN1C2C=C3C(C#N)=C(N)C(C#N)(C#N)[C@@H](c4ccc(Cl)cc4)[C@@H]3C1CC2 (stereo partly drawn)
    i, i, -3, i, 1
Cn1c(=O)oc2cc(S(=O)(=O)N3CCC(C(=O)N4CC=C(c5ccccc5)CC4)CC3)ccc21
    /, /, -1, /, -6
CCc1ccc(NC(=O)c2cc(-c3ccco3)on2)cc1
    i, i, -3, i, 0
COc1ccc(CCNc2oc(COc3ccccc3Cl)nc2C#N)cc1OC
    i, i, 15, i, 1
COC(=O)CSc1nnc(CNC(=O)c2ccc(OC)cc2OC)n1C
    /, /, -4, /, 1
Cc1ccc2nc(NC(=O)C3CCCN(S(=O)(=O)c4cccnc4)C3)sc2c1 (stereo not drawn)
    /, /, -1, /, 2
COCCn1c(=S)[nH]c2cc(C(=O)N3CCN(c4ccc(F)cc4)CC3)ccc2c1=O
    /, /, -2, /, -1
CCC1C(=O)N=C(SCC(=O)Nc2ccc(C(=O)OC)cc2)NC1=O (stereo not drawn)
    /, /, -2, /, 2
COc1ccc(CCNC(=O)C2CCC(CNc3c(N4CCCC4)c(=O)c3=O)CC2)cc1OC (stereo not drawn)
    /, /, -8, /, 1
c1coc(Cn2nnnc2CN2CCN(C3CCCC3)CC2)c1
    i, i, -2, i, 2
CCOc1cccc(OCCCCn2ccnc2)c1
    i, i, 7, i, 6
COc1ccc(-n2ncc3c(=O)n(CC(=O)OCc4ccccc4)cnc32)cc1
    i, i, -8, i, -3
C[C@@H]1C[C@H]2[C@@H]3C[C@H](F)C4=CC(=O)C=C[C@]4(C)[C@@]3(F)[C@@H](O)C[C@]2(C)[C@@]1(O)C(=O)CO
    i, i, -3, i, 4
COc1ccc(-n2nnc3c(SCC(=O)N4CCCc5ccccc54)ncnc32)cc1
    /, /, -6, /, -2
COc1ccc(NC(=O)COc2nsnc2N2CCCCC2)cc1
    /, /, 4, /, -13
CCCc1cc(C(=O)Nc2ccccc2SC)no1
    i, i, 5, i, -4
CCOC(=O)c1nc2sc(C)c(C)c2c(=O)[nH]1
    /, /, -3, /, 1
CCN(CC)c1ccc(NC(=O)CN2CCN(c3ccccc3F)CC2)cc1
    /, /, -3, /, 8
CCn1ncc(C2=NOC(C(=O)NCc3ccc(OC)cc3)C2)c1C (stereo not drawn)
    /, /, -3, /, -5
COc1ccc(NC(=O)CSc2nnc(-c3ccccc3)n2N)cc1
    i, i, -1, i, -3
Cc1[nH]c(=O)[nH]c(=O)c1S(=O)(=O)N1CCCC(C(=O)NCc2ccco2)C1 (stereo not drawn)
    i, i, 6, i, 2
O=C(NCCN1CCOCC1)c1csc2c1CCCC2
    i, i, 4, i, 0
CC(=O)O[C@]1(C(C)=O)CC[C@H]2[C@@H]3C[C@H](C)C4=CC(=O)CC[C@]4(C)[C@H]3CC[C@@]21C
    i, i, 6, i, 4
CCc1nn(C(C)C(=O)N2CCc3ccccc3C2)c(=O)c2cc3occc3n12 (stereo not drawn)
    /, /, 4, /, -7
CCC(C(=O)Nc1ccccc1OC)n1c(C(=O)OC)cc2ccsc21 (stereo not drawn)
    /, /, -2, /, -5
Cc1cccc(Cn2c(=O)n(CCCC(=O)NCc3ccco3)c(=O)c3ccccc32)c1
    /, /, 1, /, -4
COCCCNC(=O)CC1Oc2ccccc2NC1=O (stereo not drawn)
    i, i, -4, i, -2
Cc1ccc(-n2c(=O)c3sccc3n(CC(=O)NCc3ccco3)c2=O)cc1
    i, i, -2, i, 1
COc1ccc(S(=O)(=O)Nc2ccc3oc(C)c(C(=O)O)c3c2)cc1
    /, /, -2, /, -5
Cn1c(=O)c2c(nc(SCc3nn[nH]n3)n2Cc2ccccc2F)n(C)c1=O
    i, i, -2, i, -5
O=C(O)[C@H]1CCCC[C@H]1C(=O)Nc1ccc(Nc2ccccc2)cc1
    /, /, -11, /, 0
CCCCOc1ccc(OC(=O)c2cccnc2)cc1
    /, /, -1, /, -6
CC(=O)Nc1ccc(S(=O)(=O)NC(CC(=O)N(C)Cc2ccccc2)C(C)C)cc1 (stereo not drawn)
    /, /, 0, /, -1
COc1cccc(-n2c(SC3CCOC3=O)nc3ccccc3c2=O)c1 (stereo not drawn)
    i, i, 1, i, 2
COCC(=O)NCc1nc2ccccc2n1Cc1ccccc1F
    /, /, 1, /, -1
CCCCNc1nc(N(C)c2ccccc2)nc(-n2ccnc2)n1
    /, /, 4, /, 1
COc1ccccc1NC(=O)CSc1nnc(Cc2cccn2C)n1-c1ccc(F)cc1
    i, i, 1, i, -3

# Given with values ahead of the structure: part of the list above.
VCAM-1 imaging | VCAM-1 up imaging | FPR ligand | VCAM-1 down | FPRL1 binder | canonical_smiles
/ | / | 4 | / | 1 | CCCCNc1nc(N(C)c2ccccc2)nc(-n2ccnc2)n1
/ | / | 4 | / | -7 | CCc1nn(C(C)C(=O)N2CCc3ccccc3C2)c(=O)c2cc3occc3n12 (stereo not drawn)
/ | / | -1 | / | -6 | CCCCOc1ccc(OC(=O)c2cccnc2)cc1
/ | / | 0 | / | -1 | CC(=O)Nc1ccc(S(=O)(=O)NC(CC(=O)N(C)Cc2ccccc2)C(C)C)cc1 (stereo not drawn)
i | i | -2 | i | 1 | Cc1ccc(-n2c(=O)c3sccc3n(CC(=O)NCc3ccco3)c2=O)cc1
i | i | 1 | i | 2 | COc1cccc(-n2c(SC3CCOC3=O)nc3ccccc3c2=O)c1 (stereo not drawn)
/ | / | 1 | / | -1 | COCC(=O)NCc1nc2ccccc2n1Cc1ccccc1F

# An excerpt from above in order of formula weight, ascending:
# Order of values – VCAM-1 imaging, VCAM-1 up imaging, FPR ligand, VCAM-1 down, FPRL1 binder
O=C(CN1C(=O)C2(OCCCO2)c2ccccc21)NCCc1ccccc1
    /, /, 8, /, 4
COc1ccc(-n2ncc3c(=O)n(CC(=O)OCc4ccccc4)cnc32)cc1
    i, i, -8, i, -3
Cc1ccc(-n2c(=O)c3sccc3n(CC(=O)NCc3ccco3)c2=O)cc1
    i, i, -2, i, 1

# Next part:
# Order of values – VCAM-1 imaging, VCAM-1 up imaging, FPR ligand, VCAM-1 down, FPRL1 binder
Cc1ccc2c(c1)N(CCC(=O)NCc1cccnc1)C(=O)CO2
    /, /, 0, /, -1
CCC(C)N=C1SCC(C)(/C=N/O)S1 (stereo not drawn)
    i, i, 0, i, -3
CCC(=O)N1CCN=C1SCc1ccc(Cl)cc1
    i, i, -2, i, 3
CCn1c(=O)c2cc(C(=O)N3CCOCC3)sc2c2ccccc21
    /, /, -7, /, -4
COC(=O)c1ccc2c(c1)NC(=O)C1CCCN21 (stereo not drawn)
    /, /, 7, /, 0
COc1ccc(-c2ccc(=O)n(CC(=O)N3CCN(c4ccccc4OC)CC3)n2)cc1
    /, /, 3, /, 2
O=C1CCCN1CN(C(=O)c1ccc2c(c1)OCO2)c1ccc(F)cc1
    /, /, 16, /, 0
CCOc1c(OC)cccc1C1CC(=O)Nc2cc3c(cc21)OCCO3 (stereo not drawn)
    /, /, 9, /, 6
CCSc1nnc(NC(=O)C(CC)(C(F)(F)F)C(F)(F)F)s1
    i, i, -3, i, -1
CCOCCCNC(=O)C1c2ccccc2C(=O)N2CCc3ccccc3C12 (stereo not drawn)
    /, /, 1, /, 9
COc1ccc(Cc2nnn(CC(=O)O)n2)cc1
    /, /, -6, /, 0
Cc1ccc(S(=O)(=O)NC(=O)NN2CCCCCC2)cc1
    i, i, 3, i, -4
O=C(NCC1COc2ccccc2O1)C1CCCN(S(=O)(=O)c2cccc3nsnc23)C1 (stereo not drawn)
    /, /, 2, /, -6
COc1ccc(C2CC(c3ccccc3)Nc3nc(NC(=O)c4cccs4)nn32)cc1 (stereo not drawn)
    i, i, 5, i, -6
CCN(CC)S(=O)(=O)c1ccc(C(=O)NC2=C(C(=O)OC)SCC2)cc1
    /, /, -5, /, -14
COc1ccc(C2CC(=O)c3c([nH]c(C(=O)OC(C)C)c3C)C2)cc1OC (stereo not drawn)
    /, /, 0, /, 6
COc1ccc(CN2CN(C(C)C)CSC2=S)cc1
    /, /, 5, /, 5
CN1CC=C2C(C#N)=C(N)C(C#N)(C#N)[C@H](c3cccc(Cl)c3)C2C1 (stereo partly drawn)
    i, i, -3, i, 1
CCOc1cc2[nH]c(=O)n(CCC(=O)N3CCN(c4ccccc4OC)CC3)c(=O)c2cc1OCC
    /, /, -3, /, -2
CCN(CCCNC(=O)CN(C)S(=O)(=O)c1ccc2c(c1)CCC(=O)N2)c1cccc(C)c1
    /, /, 0, /, -2
CCOc1ccccc1N(C(=O)c1ccco1)C(C(=O)NC1CCCC1)c1cccnc1 (stereo not drawn)
    i, i, -4, i, -3
CCCCN(Cc1cc2cc(OC)ccc2[nH]c1=O)C(=O)c1ccccn1
    i, i, -1, i, -3
COc1cccc(OCC(=O)NC2CCCCC2)c1
    /, /, 4, /, -1
O=C(CCCCn1c(=O)[nH]c2ccccc2c1=O)NCCC1=CCCCC1
    /, /, 1, /, 4
Cc1c(C(=O)NCCCN2CCCC2=O)oc2ccc(S(=O)(=O)N3CCOCC3)cc12
    /, /, 6, /, 2
COc1ccc(S(=O)(=O)Cc2ccc(C(=O)N3CCN(c4ncccn4)CC3)o2)cc1
    /, /, 1, /, 1
O=C(C1CCCN(S(=O)(=O)c2cccs2)C1)N1CCC(N2CCCCC2)CC1 (stereo not drawn)
    /, /, -4, /, -1
CC(C)(C)N1C(=O)c2ccc(C(=O)O)cc2C1=O
    /, /, 0, /, -3
Cc1ccc2cc(-c3noc(C4CCCCC4)n3)c(=O)[nH]c2c1
    /, /, 1, /, -2
O=C(c1cc(C2CC2)on1)N1CCN(c2ccc(F)cc2)CC1
    /, /, 0, /, -2
O=C(CN1C(=O)C2(OCCO2)c2ccccc21)c1ccc(Br)cc1
    /, /, 2, /, -4
CCCCCOC(=O)Cn1c(=O)oc2ccccc21
    /, /, 31*, /, 23
O=C1C(=O)N(CCN2CCOCC2)C(c2ccccn2)/C1=C(/O)c1ccccc1 (stereo not drawn)
    /, /, -15, /, -4
CC(C)(C)NC(=O)CSc1nnc(-c2ccccn2)n1-c1ccccc1
    i, i, -2, i, -1
CN(C)c1oc(-c2ccccc2Cl)nc1S(=O)(=O)c1ccccc1
    /, /, -3, /, -2
Cc1cc(C)c2c(N)c(C(=O)N3CCN(c4ncccn4)CC3)sc2n1
    i, i, 2, i, -1
Cc1cc(C)nc(NS(=O)(=O)c2ccc(Br)s2)c1
    /, /, 0, /, -1
CC(C)OC(=O)c1cc(NC(=O)C2C3CCC(O3)C2C(=O)O)cc(C(=O)OC(C)C)c1 (stereo not drawn)
    i, i, 40*, i, 2
Cc1ccc(NS(=O)(=O)c2cn(C)cn2)cc1
    i, i, -2, i, 1
CC(C)n1nc(C(=O)Nc2nc3ccc(S(C)(=O)=O)cc3s2)c2ccccc2c1=O
    i, i, 0, i, 1
Cc1ccc(N2CCN(c3cc(C)nc4nc(C)nn34)CC2)c(C)c1
    /, /, 0, /, -3
CN1CCN(C(=O)CCC(=O)c2ccc(F)cc2)CC1
    i, i, 0, i, 6
CCn1c(CCNC(=O)c2cccs2)nnc1SCC(=O)c1ccc(OC)cc1
    i, i, -5, i, 0
CCN1CCN(C(=O)CCN2C(=O)COc3ccc(C)cc32)CC1
    /, /, -2, /, 14
COc1nc(N2CCOCC2)nc(-n2cccc2)n1
    i, i, -2, i, -3
CC12CC(NC(=O)N1c1cccc(C(=O)N3CCN(c4ccccc4)CC3)c1)c1ccccc1O2 (stereo not drawn)
    /, /, 9, /, -7
CCOc1ccccc1N1CC(O)=C(c2nc3ccccc3s2)C1=N
    i, i, -9, i, -6
Cc1ccc(C)c(S(=O)(=O)NCc2ccc(C(=O)N3CCN(C)CC3)cc2)c1
    i, i, 0, i, -4
